UUG fidelity – yeast start codon fidelity modulation. S. cerevisiae UUG-firefly luciferase reporter, luminescence/redox ratio. activity score, % at 18.7 µM. 350,000 tested, 0.13% active;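 active means replicate mean at a twofold rise or more, about +100% in these data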;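 further: firefly luciferase made from a UUG start codon reports start codon fidelity; reporter light over untreated wells divided by growth signal over untreated wells; some hits fall short of that in this replicate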
Env fusion inh – blocks HIV Env-driven cell-cell fusion. HeLa-JRFL Env/CEM21 cell fusion, luciferase. inhibition, % at 12.3 µM. 360,000 tested, 1.1% active. AID 651610;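 active means mean replicate inhibition score of at least 50 and every replicate individually at or above 50; inconclusive means only one of the two criteria met; inactive means mean below 50 and not all replicates reaching 50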;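 further: 0% = plate neutral controls and 100% = maraviroc near 300 nM; one replicate is shown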
Numbers without * were called inactive; u = inconclusive; [ ] = dose if it differs, or a comment. Not all compounds are listed (hit frequency here may not be typical).

SMILES | UUG fidelity | Env fusion inh
C[C@H]1CN([C@@H](C)CO)C(=O)c2cccc(NC(=O)NC3CCCCC3)c2O[C@H]1CN(C)Cc1ccc(Oc2ccccc2)cc1 | -1 | -90[16.7 µM]
CCCC(=O)Nc1ccc2c(c1)C(=O)N(C)[C@@H]1CC[C@@H](CC(=O)OC)O[C@H]1CO2 | 5 | -18[16.7 µM]
CCS(=O)(=O)N[C@H]1C=C[C@@H](CC(=O)NCc2ccc(F)cc2)O[C@H]1CO | -9 | -23[16.7 µM]
COc1ccc(CN(C)C[C@H]2OCCCC[C@@H](C)Oc3ccc(N(C)C)cc3C(=O)N([C@@H](C)CO)C[C@H]2C)cc1 | 4 | -21[16.7 µM]
CCO[C@@H]1OC(C(=O)N2CCN(Cc3ccccc3)CC2)=C[C@H](C2CCCCC2)[C@H]1CCCO | -12 | 12[16.7 µM]
C[C@@H]1CN([C@H](C)CO)C(=O)Cc2cc(N(C)C)ccc2O[C@H]1CN(C)Cc1ccc(Oc2ccccc2)cc1 | -15 | 53[16.7 µM]
CCC(=O)N[C@@H]1CC[C@H](CC(=O)NCc2ccc(OC)cc2)O[C@H]1CO | 2 | -8[16.7 µM]
CCCN(C)C[C@@H]1OCCCC[C@H](C)Oc2ccc(NC(=O)C3CCCCC3)cc2C(=O)N([C@@H](C)CO)C[C@@H]1C | 21 | -12[16.7 µM]
CC(=O)N(C)C[C@@H]1Oc2cc(-c3ccccc3F)ccc2S(=O)(=O)N([C@H](C)CO)C[C@H]1C | -2 | -8[16.7 µM]
CCC(=O)N[C@@H]1CC[C@@H](CCNC(=O)Nc2ccc(C(F)(F)F)cc2)O[C@H]1CO | 17 | u
CNC[C@@H]1OCCCC[C@@H](C)Oc2ccc(NS(=O)(=O)c3ccccc3)cc2C(=O)N([C@@H](C)CO)C[C@H]1C | 5 | 1[16.7 µM]
C[C@@H]1CN([C@@H](C)CO)S(=O)(=O)c2ccc(-c3cncnc3)cc2O[C@@H]1CN(C)C(=O)NC1CCCC1 | -10 | -17[16.7 µM]

Look-ups from the entries so far:
Reading for CCCN(C)C[C@@H]1OCCCC[C@H](C)Oc2ccc(NC(=O)C3CCCCC3)cc2C(=O)N([C@@H](C)CO)C[C@@H]1C in Env fusion inh: -12[16.7 µM]
Reading for CC(=O)N(C)C[C@@H]1Oc2cc(-c3ccccc3F)ccc2S(=O)(=O)N([C@H](C)CO)C[C@H]1C in Env fusion inh: -8[16.7 µM]

(listing goes on)
SMILES | UUG fidelity | Env fusion inh
CNC(=O)C1=C[C@@H](c2ccc(OC)cc2)C[C@@H](OCCCCO)O1 | -2 | 5[16.7 µM]
C[C@H]1CCCCO[C@H](CN(C)S(=O)(=O)c2ccc(Cl)cc2)[C@@H](C)CN([C@@H](C)CO)C(=O)c2cc(NC(=O)Nc3ccc(F)cc3)ccc2O1 | 10 | 19[16.7 µM]
CC(C)NC(=O)Nc1ccc2c(c1)CC(=O)N([C@H](C)CO)C[C@H](C)[C@H](CN(C)S(=O)(=O)c1cccs1)O2 | 22 | 60*[16.7 µM]
CCCC#Cc1cnc2c(c1)C(=O)N([C@H](C)CO)C[C@H](C)[C@@H](CN(C)C(=O)Nc1ccccc1F)O2 | 20 | 10[16.7 µM]
CC(=O)N(C)C[C@H]1Oc2cc(C#CC3(O)CCCC3)ccc2S(=O)(=O)N([C@@H](C)CO)C[C@@H]1C | -1 | 3[16.7 µM]
CC(C)NC(=O)N[C@@H]1C=C[C@H](CC(=O)N2CCCCC2)O[C@H]1CO | -9 | 9[16.7 µM]
COc1ccccc1-c1cnc2c(c1)C(=O)N([C@@H](C)CO)C[C@@H](C)[C@H](CN(C)C(=O)c1ccncc1)O2 | -6 | 14[16.7 µM]
COc1cccc(NC(=O)Nc2ccc3c(c2)C(=O)N(C)[C@H]2CC[C@H](CC(=O)O)O[C@H]2CO3)c1 | 12 | -18[16.7 µM]
COc1ccc(NC(=O)Nc2ccc3c(c2)C(=O)N([C@@H](C)CO)C[C@@H](C)[C@H](CN(C)Cc2ccc(Oc4ccccc4)cc2)O3)cc1 | 25 | 18[16.7 µM]
O=C(C[C@H]1CC[C@@H](NC(=O)c2ccc(F)cc2)[C@H](CO)O1)NCCc1ccncc1 | -6 | -7[16.7 µM]
C[C@@H]1CN([C@@H](C)CO)S(=O)(=O)c2ccc(C#C[C@@H](C)O)cc2O[C@@H]1CN(C)C(=O)C1CCCCC1 | 18 | -7[16.7 µM]
CC(C)CC#Cc1cnc2c(c1)C(=O)N([C@H](C)CO)C[C@@H](C)[C@H](CN(C)C(=O)c1cnccn1)O2 | 4 | -12[16.7 µM]
CCCN1C[C@H](C)[C@@H](OC)CN(C)C(=O)c2ccc(NC(=O)Nc3c(C)noc3C)cc2OC[C@@H]1C | 11 | -26[16.7 µM]
C[C@@H]1CN([C@H](C)CO)C(=O)Cc2cc(NS(C)(=O)=O)ccc2O[C@@H]1CN(C)S(=O)(=O)c1cn(C)cn1 | -2 | -21[16.7 µM]
COc1cccc(-c2cnc3c(c2)C(=O)N([C@H](C)CO)C[C@H](C)[C@H](CN(C)S(=O)(=O)c2ccc(F)cc2)O3)c1 | 1 | -4[16.7 µM]
C[C@H]1CCCCO[C@@H](CN(C)Cc2ccncc2)[C@@H](C)CN([C@@H](C)CO)C(=O)c2cc(NS(=O)(=O)c3ccc(Cl)cc3)ccc2O1 | 35 | 5[16.7 µM]
C[C@@H]1CN([C@@H](C)CO)S(=O)(=O)c2ccc(C#C[C@@H](C)O)cc2O[C@@H]1CN(C)CC1CC1 | -16 | -14[16.7 µM]
Cc1ccc(S(=O)(=O)NCC[C@@H]2CC[C@H](NC(=O)Nc3cccc(F)c3)[C@@H](CO)O2)cc1 | 3 | 10[16.7 µM]
Cn1cnc(S(=O)(=O)N[C@@H]2C=C[C@@H](CC(=O)NCC3CCCCC3)O[C@H]2CO)c1 | -5 | -1[16.7 µM]
C[C@@H]1CN([C@H](C)CO)C(=O)c2cc(NC(=O)C3CC3)ccc2O[C@H]1CN(C)Cc1ccc2c(c1)OCO2 | -13 | -5[16.7 µM]
COc1ccc(NC(=O)Nc2ccc3c(c2)C(=O)N([C@H](C)CO)C[C@H](C)[C@@H](CN(C)S(=O)(=O)c2ccc(C)cc2)O3)cc1 | 2 | 3[16.7 µM]
C[C@@H]1CN([C@H](C)CO)C(=O)Cc2cc(NC(=O)Nc3ccc(F)cc3)ccc2O[C@H]1CN(C)Cc1ccccc1 | -5 | -3[16.7 µM]
C[C@@H]1CN([C@H](C)CO)C(=O)c2cccc(NC(=O)C3CCOCC3)c2O[C@@H]1CN(C)C(=O)Nc1cccc2ccccc12 | 2 | -5[16.7 µM]
C[C@@H]1CN([C@@H](C)CO)S(=O)(=O)c2ccc(-c3cccnc3)cc2O[C@H]1CN(C)C(=O)CC1CC1 | -6 | 5[16.7 µM]

Arranged by heavy-atom count (descending): some entries from above.
SMILES | UUG fidelity | Env fusion inh
C[C@H]1CCCCO[C@@H](CN(C)Cc2ccncc2)[C@@H](C)CN([C@@H](C)CO)C(=O)c2cc(NS(=O)(=O)c3ccc(Cl)cc3)ccc2O1 | 35 | 5[16.7 µM]
C[C@@H]1CN([C@H](C)CO)C(=O)Cc2cc(NC(=O)Nc3ccc(F)cc3)ccc2O[C@H]1CN(C)Cc1ccccc1 | -5 | -3[16.7 µM]
COc1cccc(-c2cnc3c(c2)C(=O)N([C@H](C)CO)C[C@H](C)[C@H](CN(C)S(=O)(=O)c2ccc(F)cc2)O3)c1 | 1 | -4[16.7 µM]
C[C@@H]1CN([C@@H](C)CO)S(=O)(=O)c2ccc(-c3cccnc3)cc2O[C@H]1CN(C)C(=O)CC1CC1 | -6 | 5[16.7 µM]
Cn1cnc(S(=O)(=O)N[C@@H]2C=C[C@@H](CC(=O)NCC3CCCCC3)O[C@H]2CO)c1 | -5 | -1[16.7 µM]

Later entries.
SMILES | UUG fidelity | Env fusion inh
C[C@H](CO)N1C[C@H](C)[C@H](CN(C)C(=O)NC2CCCCC2)OCCCC[C@H](C)Oc2ccc(NS(=O)(=O)c3cccs3)cc2C1=O | 16 | -116[16.7 µM]
C[C@H](CO)N1C[C@H](C)[C@@H](CN(C)Cc2ccc(C(F)(F)F)cc2)Oc2ccc(NS(C)(=O)=O)cc2C1=O | 6 | 28[16.7 µM]
C[C@@H]1CN([C@H](C)CO)C(=O)c2cc(NC(=O)Nc3ccc(C(F)(F)F)cc3)ccc2O[C@@H](C)CCCCO[C@@H]1CN(C)S(=O)(=O)c1cn(C)cn1 | -14 | -11[16.7 µM]
COc1ccc(NC(=O)N(C)C[C@@H]2OCCCC[C@H](C)Oc3ccc(NC(=O)CCC(F)(F)F)cc3C(=O)N([C@H](C)CO)C[C@H]2C)cc1 | 25 | -14[16.7 µM]
CNC[C@H]1Oc2ncc(C#Cc3ccccc3F)cc2C(=O)N([C@@H](C)CO)C[C@H]1C | 8 | 3[16.7 µM]
O=C(CN1CCOCC1)NCC[C@H]1CC[C@@H](NC(=O)c2ccc3c(c2)OCO3)[C@H](CO)O1 | -9 | -2[16.7 µM]
C[C@@H]1CN([C@H](C)CO)S(=O)(=O)c2ccc(C#Cc3ccccc3)cc2O[C@@H]1CN(C)S(=O)(=O)c1ccccc1F | -15 | -97[16.7 µM]
C[C@@H]1CN([C@H](C)CO)C(=O)c2cc(C3=CCCCC3)cnc2O[C@@H]1CN(C)C(=O)Nc1ccc(F)cc1 | 16 | -19[16.7 µM]
C[C@@H]1CCCCO[C@@H](CN(C)S(=O)(=O)c2cn(C)cn2)[C@H](C)CN([C@@H](C)CO)C(=O)c2cc(NS(=O)(=O)c3ccc(F)cc3)ccc2O1 | 11 | -15[16.7 µM]
C[C@H]1CN([C@@H](C)CO)C(=O)c2cc(NC(=O)Nc3cccc4ccccc34)ccc2O[C@@H]1CN(C)Cc1ccccc1 | -7 | 21[16.7 µM]
C[C@H]1CN([C@@H](C)CO)S(=O)(=O)c2ccc(C#Cc3ccncc3)cc2O[C@@H]1CN(C)S(=O)(=O)c1ccccc1 | 126* | -11[16.7 µM]
Cc1ccc(S(=O)(=O)Nc2ccc3c(c2)C(=O)N([C@H](C)CO)C[C@@H](C)[C@@H](CN(C)S(=O)(=O)c2ccc(Cl)cc2)OCCCC[C@H](C)O3)cc1 | -4 | 10[16.7 µM]
COc1cccc(NC(=O)N(C)C[C@@H]2Oc3cc(-c4ccccc4F)ccc3S(=O)(=O)N([C@H](C)CO)C[C@@H]2C)c1 | 2 | 14[16.7 µM]
C[C@@H]1CN([C@H](C)CO)C(=O)Cc2cc(NS(C)(=O)=O)ccc2O[C@@H]1CN(C)Cc1ccc(C(F)(F)F)cc1 | 0 | 21[16.7 µM]
C[C@@H]1CN([C@H](C)CO)C(=O)Cc2cc(NC(=O)Cc3ccccc3)ccc2O[C@@H]1CN(C)CC1CC1 | -4 | 3[16.7 µM]
Cc1ccc(S(=O)(=O)N(C)C[C@@H]2Oc3ccc(NC(=O)Cn4cnnn4)cc3CC(=O)N([C@@H](C)CO)C[C@H]2C)cc1 | 9 | 18[16.7 µM]
COc1ccc(NC(=O)Nc2cccc3c2O[C@H](CN(C)Cc2ccccc2)[C@@H](C)CN([C@@H](C)CO)C3=O)cc1 | 16 | 16[16.7 µM]
C[C@@H]1CN([C@H](C)CO)C(=O)c2cccc(NC(=O)Nc3ccc4c(c3)OCO4)c2O[C@@H]1CN(C)Cc1ccc2c(c1)OCO2 | 2 | 0[16.7 µM]
CC(C)CC#Cc1cnc2c(c1)C(=O)N([C@@H](C)CO)C[C@@H](C)[C@@H](CN(C)Cc1ccc3c(c1)OCO3)O2 | -4 | 15[16.7 µM]
Cc1ccc(S(=O)(=O)Nc2cccc3c2O[C@H](CN(C)C(=O)Nc2ccccc2)[C@H](C)CN([C@H](C)CO)C3=O)cc1 | 15 | -60[16.7 µM]
COc1ccc(COC[C@@]23Oc4ccccc4[C@@H](NC(=O)N2C)[C@H]3CO)cc1 | 0 | -25[16.7 µM]
C[C@@H]1CN([C@@H](C)CO)C(=O)c2cc(NS(C)(=O)=O)ccc2O[C@@H](C)CCCCO[C@H]1CN(C)S(=O)(=O)c1cn(C)cn1 | 9 | 6[16.7 µM]
CCCC(=O)Nc1ccc2c(c1)C(=O)N(C)C[C@@H](OC)[C@@H](C)CN(Cc1ccccc1)[C@H](C)CO2 | -3 | -39[16.7 µM]
COc1cccc(S(=O)(=O)N[C@@H]2CC[C@H](CC(=O)NCc3ccc(F)cc3)O[C@@H]2CO)c1 | 4 | -4[16.7 µM]
CCCC(=O)Nc1ccc2c(c1)C(=O)N(C)[C@@H]1CC[C@@H](CC(=O)NCC3CCCCC3)O[C@@H]1CO2 | 17 | -274[16.7 µM]
C[C@@H]1CN([C@@H](C)CO)C(=O)Cc2cc(NC(=O)CCCCCC(=O)Nc3ccccc3N)ccc2O[C@@H]1CN(C)S(=O)(=O)c1ccccc1 | -4 | 7[16.7 µM]
C[C@@H]1CCCCO[C@@H](CN(C)S(=O)(=O)c2ccccc2)[C@H](C)CN([C@@H](C)CO)C(=O)c2cc(NC(=O)CCC(F)(F)F)ccc2O1 | 4 | -34[16.7 µM]
Cc1ccc(S(=O)(=O)N(C)C[C@@H]2OCCCC[C@H](C)Oc3ccc(NC(=O)Nc4cccc5ccccc45)cc3C(=O)N([C@H](C)CO)C[C@@H]2C)cc1 | -3 | -40[16.7 µM]
C[C@H]1CN([C@@H](C)CO)S(=O)(=O)c2ccc(C3=CCCC3)cc2O[C@H]1CN(C)C(=O)C1CCCCC1 | -11 | 8[16.7 µM]
CCC(=O)N1C[C@H](O)COC[C@H]2O[C@H](CC(=O)NCC3CCCCC3)CC[C@@H]21 | 0 | 5[16.7 µM]
CN1C(=O)c2cc(NS(=O)(=O)c3ccc(Cl)cc3)ccc2OC[C@@H]2O[C@@H](CC(=O)N3CCc4ccccc4C3)CC[C@@H]21 | 7 | 6[16.7 µM]
CN1C(=O)c2cc(NC(=O)Cc3cccs3)ccc2OC[C@@H]2O[C@@H](CC(=O)O)CC[C@H]21 | 4 | -6[16.7 µM]
CN(C)Cc1cn(CC[C@H]2CC[C@@H](NS(=O)(=O)c3ccccc3)[C@@H](CO)O2)nn1 | -4 | 13[16.7 µM]
